# T cruzi repl: inhibitors of intracellular T. cruzi growth, primary screen, luminescence, NIH3T3 host cells; T. cruzi beta-gal in NIH3T3, 90 h; inhibition, % (test concentration not listed); 300,000 compounds, 1.4% hits; AID 1885, 2009;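 active means mean inhibition across valid replicates above about 55%, limit read from the data; inconclusive means mean below that limit but half or more replicates reach it; inactive means mean below it, under half of replicates reach it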;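 further: signal also drops with host cell toxicity which is not excluded here; 0% = plate median of DMSO wells and 100% = zero luminescence signal; higher percent means less beta-gal luminescence so fewer parasites; stock transfer was 50 nL into about 50 µL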
# Calb FLC: C. albicans growth inhibition with fluconazole, primary screen, CaCi-2 strain, Alamar Blue fluorescence; 300,000 compounds, 0.57% hits; growth inhibition, % (test concentration not listed); C. albicans CaCi-2 (fluconazole-resistant clinical isolate) + fluconazole, 48 h;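 active means most replicates above 75%; inconclusive means exactly half above 75%; inactive means most below 75%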;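 further: all wells also contain fluconazole at 8 µg/ml as a sub-toxic cotreatment; 0% = median of DMSO wells and 100% = median of geldanamycin control wells; wells of about 8 µL received 7.5 nL stock; the first replicate is given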
# ALR H2O2 inh: inhibitors of human ALR sulfhydryl oxidase, primary screen, biochemical, H2O2 detection, HRP-luminol luminescence, single point. FAD-linked sulfhydryl oxidase ALR (Homo sapiens), P55789. purified ALR, DTT oxidation. inhibition, % (test concentration not listed). 290,000 compounds, 3.8% hits. AID 485317, 2010;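 active means mean and each replicate at 75% or more; inconclusive means only one of the two met; inactive means neither met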;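 further: stock transfer was 7.5 nL into about 7.5 µL; 0% = neutral wells and 100% = wells with inactivated enzyme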
# Target sequence (P55789 whole entry, looked up): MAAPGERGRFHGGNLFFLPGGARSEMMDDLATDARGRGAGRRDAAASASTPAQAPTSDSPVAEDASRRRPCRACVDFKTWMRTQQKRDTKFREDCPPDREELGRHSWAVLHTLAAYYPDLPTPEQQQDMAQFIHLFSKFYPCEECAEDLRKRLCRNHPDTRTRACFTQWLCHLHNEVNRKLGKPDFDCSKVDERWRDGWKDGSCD
# MLL AF4-AF9 inh: inhibitors of AF4 peptide binding to AF9, primary screen, biochemical, AlphaScreen, biotin-AF4 peptide, FLAG-AF9, single point | inhibition, % at 10 µM | 350,000 compounds, 0.47% hits | AID 651704, 2012 | Protein AF-9 (Homo sapiens), P42568;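 active means every replicate reaching a set inhibition limit, whatever the replicate mean, cut at about 25% in these data; inconclusive means mean inhibition reaches that limit but some replicates miss it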;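 further: 0% = plate neutral control median and 100% = total signal loss; the record names both 10 and 1 µM as test concentration; the first replicate is given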
# Target sequence (P42568 whole entry, looked up): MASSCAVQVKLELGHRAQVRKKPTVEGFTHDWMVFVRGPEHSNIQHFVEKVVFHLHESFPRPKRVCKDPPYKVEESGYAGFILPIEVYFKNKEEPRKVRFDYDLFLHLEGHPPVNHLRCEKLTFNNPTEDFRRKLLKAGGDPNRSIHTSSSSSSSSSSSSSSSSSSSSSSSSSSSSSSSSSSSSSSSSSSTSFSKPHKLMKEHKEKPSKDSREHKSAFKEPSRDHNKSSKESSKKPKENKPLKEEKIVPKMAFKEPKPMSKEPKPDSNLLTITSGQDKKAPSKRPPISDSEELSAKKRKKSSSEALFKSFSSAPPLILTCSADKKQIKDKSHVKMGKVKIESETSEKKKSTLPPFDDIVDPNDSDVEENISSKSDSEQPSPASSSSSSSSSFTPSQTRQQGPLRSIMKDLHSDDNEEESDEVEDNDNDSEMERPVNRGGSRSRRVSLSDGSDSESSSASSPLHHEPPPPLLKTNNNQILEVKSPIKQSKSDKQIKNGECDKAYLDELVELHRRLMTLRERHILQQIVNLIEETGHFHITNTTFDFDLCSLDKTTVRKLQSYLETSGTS
# FGF22 binding: binders of human FGF22 protein, primary screen, FGF22 synaptogenesis inhibitor project, biophysical, thermal shift, single point; Fibroblast growth factor 22 (Homo sapiens), Q9HCT0; recombinant FGF22 thermal shift, SYPRO orange fluorescence; percent of sucrose octasulfate shift, DMSO zero; calls only at 9.99 µM; 340,000 compounds, 1.5% hits;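 active means melting point raised past a set limit in the mean and every replicate; inconclusive means no clear call; three in four hits are not shown here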
# Target sequence (Q9HCT0 whole entry, looked up): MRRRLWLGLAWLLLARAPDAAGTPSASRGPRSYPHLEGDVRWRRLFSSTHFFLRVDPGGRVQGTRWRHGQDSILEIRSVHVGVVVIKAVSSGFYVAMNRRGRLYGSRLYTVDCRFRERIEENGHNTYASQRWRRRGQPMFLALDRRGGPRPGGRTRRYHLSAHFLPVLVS
# rRNA inh HTS: reduced GFP signal of wild-type E. coli, primary screen, bacterial rRNA inhibitor project, GFP/RFP fluorescence, OD600, single point | E. coli WT GFP vs humanized-ribosome RFP mutants, 24 h; active compounds read low; DMSO median 0, no signal -100 | GFP signal change (wild-type ribosome), % (concentration not given with the values) | 350,000 compounds, 1.6% hits;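 active means significant combined selectivity score with lowered wild-type GFP, culture density cut under 30%, mutant RFP and density less affected; inactive means any of these conditions unmet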; further: one replicate is shown; some compounds called inactive have numbers as strong as hits
# RanGTP-Imp inh: inhibitors of RanGTP-importin-beta interaction, primary screen, biochemical, FRET, CFP-Ran, YFP-importin-beta, homogeneous | Ran GTPase (GTP-bound) - importin-beta complex | cell-free CFP-Ran/YFP-importin-beta FRET ratio | inhibition, % (no concentration beside the values) | 300,000 compounds, 1.1% hits | AID 2216, 2009;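 active means most replicates above 15%; inconclusive means exactly half above 15%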;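 further: 0% = DMSO wells and 100% = Ran loaded with GDP instead of GTP; wells of about 40 µL received 100 nL stock; the first replicate is given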
# Beta apoptosis: inhibitors of cytokine-induced beta cell apoptosis, primary screen, luminescence; protection from apoptosis, % (no concentration beside the values); 300,000 compounds, 0.8% hits; INS-1E cytokine-induced death, ATP luminescence, 48 h; percent of positive-control rescue, neutral wells zero;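 active means all replicates at 75% or more, or half of them and the mean; inconclusive means half reach 75% but not the mean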;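 further: 0% = cytokine-treated negative control wells and 100% = positive control rescue; higher means more ATP so stronger rescue from cytokine killing; wells of about 40 µL received 100 nL stock; the first replicate is given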
# rRNA inh HTS OD600: also measured in rRNA inh HTS; calls as there; OD600 change, %; measured here: OD600 growth;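 optical density of the mix in the first replicate; 0 = DMSO median and -100 = no signal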
# rRNA inh HTS RFP: further read-out of rRNA inh HTS, marked with its call; RFP signal change, %; measured here: RFP humanized mutant strains;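 first replicate; 0 = DMSO median and -100 = no signal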
# * = called active by the depositor; i = inactive; ? = inconclusive; . = no result given.
SMILES,T cruzi repl,Calb FLC,ALR H2O2 inh,MLL AF4-AF9 inh,FGF22 binding,rRNA inh HTS,rRNA inh HTS OD600,rRNA inh HTS RFP,RanGTP-Imp inh,Beta apoptosis
O=C(Nc1nccs1)c1cc(Cl)ccc1[N+](=O)[O-],-7,-8,-13,.,.,.,.,.,3.0,-4
CC(=O)Nc1ccc(S(=O)(=O)N(CCCN2CCOCC2)Cc2cccs2)cc1,0,43,-20,-2.7,.,14,9,-1.3,4.7,-1
O=C(C1CCCN1S(=O)(=O)c1ccc(Cl)c(Cl)c1)N1CCOCC1 (stereo not drawn),-3,1,-3,.,.,.,.,.,-4.9,-3
Cc1cccc(N(Cc2ccccc2)C(=O)c2cc(S(=O)(=O)N3CCOCC3)ccc2Cl)c1,17,1,-11,0.0,i,-4,-18,4.4,2.8,6
CNc1ccc(C(=O)OCC(=O)Nc2ccnn2C(C)C)cc1[N+](=O)[O-],.,.,.,1.4,i,1,4,-0.1,.,-6
CCOC(=O)CC(c1ccc(N)cc1)n1c(C)ccc1C (stereo not drawn),3,8,-5,-0.6,i,11,1,0.4,-6.2,-22
CCOc1ccc(NC(=O)CCc2c(C)nn(-c3ccc(N4CCCCC4)nn3)c2C)cc1,20,16,-4,1.7,i,0,-2,3.5,0.2,11
Cc1ccc(-c2nn[nH]n2)cc1,4,-3,.,.,.,.,.,.,2.9,-7
O=S(=O)(c1ccc(Br)s1)n1cccn1,-46,-9,-6,.,.,.,.,.,?,-3
O=C(Nc1ncc2c(n1)-c1ccccc1OC2)c1cccc([N+](=O)[O-])c1,14,?,11,0.1,i,14,18,0.7,0.7,-13
CCN(CC)C(=O)c1ccc2nc3ccccc3nc2c1,-11,3,19,1.0,i,-5,-4,-1.4,-2.5,-11
Cc1c(C(=O)Nc2ccccc2)csc1-c1ccccc1,9,-3,-2,.,.,.,.,.,-2.2,4
CC(C)(C)OC(=O)N1CCC(NC(=O)c2nc[nH]c2C(=O)N2CCN(C(=O)OC(C)(C)C)CC2)CC1,.,.,-3,3.8,i,13,8,5.8,.,1
Cc1nc(NC(=O)CSc2nnc(C3CC3)n2C)sc1C,-10,21,-3,-1.7,i,12,12,-1.1,-2.6,-6
COc1ccc(-n2c(=O)c3c(C)c(C)sc3n(Cc3ccc(F)cc3)c2=O)c(OC)c1,6,3,2,0.9,i,-3,0,3.4,-2.3,-1
OC1(c2ccccc2)CCN(Cc2ccccc2)C2CCCCC21 (stereo not drawn),-2,-1,.,.,.,.,.,.,-2.4,6
CN1C(=O)CSC1=Nc1ccc(F)cc1,1,3,-6,-1.9,.,9,11,-1.3,-1.4,1
Cn1nnnc1SCC(=O)Nc1nc2c(F)c(F)c(F)cc2s1,.,.,3,0.1,i,-8,-4,-1.7,.,8
COC(=O)CON1C(=O)c2ccccc2C1=O,0,-6,-2,.,.,.,.,.,0.6,5
COc1ccc2[nH]c3c(c2c1)CCN1C(=O)N([C@@H](C)C(=O)NCc2ccc(F)cc2)C(=O)[C@]31C,-10,5,-15,3.6,i,.,.,.,?,.
Cc1ccc(NC(=O)CCN2C(=O)C3C4CCC(C4)C3C2=O)cc1[N+](=O)[O-] (stereo not drawn),0,14,-1,-13,i,9,12,1.3,1.8,-4
CC(Oc1ccc(Cl)cc1Cl)C(=O)NNC(=O)[C@@H]1CCCC[C@@H]1C(=O)O (stereo partly drawn),-7,3,1,-1.9,i,1,-2,0.8,12,-10
Cc1occc1-c1nnc(SCC(=O)Nc2ccccc2-c2ccccc2)n1C,-9,-37,-9,.,.,.,.,.,1.2,-4
CN(CC(O)Cn1c2ccccc2c2ccccc21)S(C)(=O)=O (stereo not drawn),.,-3,.,0.2,i,-27,-24,-3.2,-3.4,-6
COc1ccc(/C=C(\NC(=O)c2ccc(C)cc2)C(=O)N2CCCCC2)cc1,2,21,-6,1.8,i,10,8,3.1,-1.4,-7
CC(=O)n1c2ccccc2c2nc3ccccc3nc21,1,3,-11,.,.,.,.,.,4.8,0
Cc1ccc(C)c(S(=O)(=O)N2CCN(C(=O)c3ccc(N4CCCC4)c([N+](=O)[O-])c3)CC2)c1,7,1,-12,4.7,i,-13,-21,-1.7,1.6,2
COc1cc(OC)cc(C(=O)N[C@H](C(=O)OCC(=O)Nc2cccc(F)c2)C(C)C)c1,4,10,-2,.,.,.,.,.,2.3,7
CN(C)c1ccc(-c2ccc3c(=O)c4ccccc4n(C)c3c2)cn1,-5,6,0,2.3,i,48,-35,-20,19*,-3
COc1ccc(CNC(=O)CCOc2ccc(C(C)(C)C)cc2)cc1,2,-23,-14,.,.,.,.,.,1.9,-5
CCCC1(C)SC(NC(C)=O)=NN1C(C)=O (stereo not drawn),0,-11,-15,.,.,.,.,.,-4.2,-5
O=C(CSc1nc2ccccc2s1)Nc1ccc(N2CCOCC2)c(Cl)c1,-3,-6,-7,.,.,.,.,.,?,-3
O=C(OCC(=O)N1CCc2ccccc2C1)c1cc(=O)[nH]c2ccccc12,-12,2,0,-4.7,i,-15,-11,0.6,0.5,-3
COc1ccc2oc(=O)c(C(=O)NCc3cccnc3)cc2c1,-3,-3,-4,.,.,.,.,.,8.2,-2
O=S(=O)(c1ccc(Br)s1)N1CCNCC1,0,-7,6,-23,i,9,4,-5.2,2.6,-6
COC(=O)C1=C(C(=O)OC)[C@@H]2N(C)c3ccccc3[C@@]23C[C@@H](C(=O)OC)N(C(=O)C2CCC2)C3=N1,-7,-5,-2,11,i,-1,-5,-5.1,-2.1,-4
CCN1CCN(C(c2cccs2)C(C)NC(=O)c2c(F)cccc2F)CC1 (stereo not drawn),-14,-12,-13,.,.,.,.,.,?,1
CC(C)Cn1c(N)c(C(=O)COC(=O)c2ccc(O)cc2)c(=O)n(C)c1=O,9,0,-7,-7.0,i,-21,-1,14,-5.4,9
COc1ccc(NC(=O)COc2nsnc2N2CCOCC2)c(OC)c1,2,.,-2,-1.8,i,5,5,-1.2,1.5,-4
Cc1ccc2[nH]c(=O)c(CN(C)S(=O)(=O)c3cccc4nonc34)cc2c1,-5,-5,-3,-2.8,i,0,10,-3.0,-0.5,1
Cc1cc(C)nc(N/N=C/c2cccc3ccccc23)n1,-10,-22,-8,3.4,i,5,0,-4.1,-1.6,16
CC(=O)NCCc1nc2cc(NC(=O)c3ccc(F)cc3)ccc2n1C,-7,-2,-9,-4.6,i,6,20,-1.3,3.3,1
COc1ccc2c(c1)CC/C(=C\Nc1ccc3c(c1)OCO3)C2=O,4,6,-32,4.7,i,-31,-47,12,-2.1,3
O=C(CSc1nnc(-c2ccccc2)n1Cc1ccccc1)NC1CC1,6,31,0,.,.,.,.,.,5.0,-2
COc1cc(C(=O)NC(=S)Nc2ccc(N3CCCC3)cc2)cc(OC)c1OC,33,12,-6,.,.,.,.,.,-2.3,-5
C/C(=N\NC(=O)Cn1nc(C)cc1C)c1ccc([N+](=O)[O-])cc1,-1,-1,.,-3.5,i,17,11,1.5,-1.1,-4
Cc1noc(C(=O)Nc2ccc(Cl)cc2)c1Cl,5,-11,-5,.,.,.,.,.,-2.1,.
COc1ccccc1CNC(=O)C(C)c1ccc([N+](=O)[O-])cc1 (stereo not drawn),12,-11,-4,-2.2,i,1,-1,0.9,-0.7,2
N#Cc1c2n(c3c(=O)n(CC(=O)c4ccc(Br)cc4)cnc13)CCCC2,13,3,.,.,.,.,.,.,-3.4,-2
CCn1c(SCc2cccnc2)nc2c1c(=O)n(C)c(=O)n2C,-7,-1,-18,.,.,.,.,.,1.0,0
Cc1ccc(C(=O)N[C@H](C(=O)OCc2cc(=O)n3c(n2)sc2ccccc23)C(C)C)cc1,7,10,.,-3.7,i,.,.,.,1.2,1
O=C1COc2ccc(S(=O)(=O)CCC(=O)NC3CCCCC3)cc2N1,-18,-6,-3,0.4,i,5,13,-2.1,5.7,-9
CN1C(=O)c2c(sc3c2CC(C)(C)SC3)N2CCN=C12,7,2,.,.,.,.,.,.,7.8,2
COc1ccc(-n2nc(C(=O)NCC(=O)NCCC3=CCCCC3)c3ccccc3c2=O)cc1,1,37,5,-4.1,i,-9,-14,11,3.8,3
Cc1ccc2oc(C(=O)N3CCN(CCO)CC3)c(C)c2c1,0,-5,1,-1.4,i,-2,3,-0.2,6.3,.
Cc1ccc(/C(N)=N/OC(=O)COc2ccc(Cl)c(C)c2)cc1,-12,-22,2,-44,i,7,2,-7.3,-1.2,.
O=S1(=O)[C@H]2C[C@@H]3C=C[C@@]2(CN1Cc1ccc(F)cc1)O3,-1,9,.,-5.5,i,9,18,0.8,2.9,-7
CC(NC(=O)Cc1ccsc1)c1ccc(F)cc1 (stereo not drawn),-9,-7,0,2.7,i,7,14,3.0,4.1,-4
CCc1ccc(Nc2cc(C)nc3ncnn23)cc1,-14,23,.,-0.3,i,4,8,-1.5,1.3,-5

# 2 entries drawn at random from those above:
SMILES,T cruzi repl,Calb FLC,ALR H2O2 inh,MLL AF4-AF9 inh,FGF22 binding,rRNA inh HTS,rRNA inh HTS OD600,rRNA inh HTS RFP,RanGTP-Imp inh,Beta apoptosis
O=C1COc2ccc(S(=O)(=O)CCC(=O)NC3CCCCC3)cc2N1,-18,-6,-3,0.4,i,5,13,-2.1,5.7,-9
Cc1ccc2oc(C(=O)N3CCN(CCO)CC3)c(C)c2c1,0,-5,1,-1.4,i,-2,3,-0.2,6.3,.

# Shown with values under each structure: six of the compounds above
# The line under a structure holds: T cruzi repl, Calb FLC, ALR H2O2 inh, MLL AF4-AF9 inh, FGF22 binding, rRNA inh HTS, rRNA inh HTS OD600, rRNA inh HTS RFP, RanGTP-Imp inh, Beta apoptosis
> COc1ccc(-n2nc(C(=O)NCC(=O)NCCC3=CCCCC3)c3ccccc3c2=O)cc1
  1, 37, 5, -4.1, i, -9, -14, 11, 3.8, 3
> Cc1ccc2oc(C(=O)N3CCN(CCO)CC3)c(C)c2c1
  0, -5, 1, -1.4, i, -2, 3, -0.2, 6.3, .
> Cc1ccc(/C(N)=N/OC(=O)COc2ccc(Cl)c(C)c2)cc1
  -12, -22, 2, -44, i, 7, 2, -7.3, -1.2, .
> O=S1(=O)[C@H]2C[C@@H]3C=C[C@@]2(CN1Cc1ccc(F)cc1)O3
  -1, 9, ., -5.5, i, 9, 18, 0.8, 2.9, -7
> CC(NC(=O)Cc1ccsc1)c1ccc(F)cc1 (stereo not drawn)
  -9, -7, 0, 2.7, i, 7, 14, 3.0, 4.1, -4
> CCc1ccc(Nc2cc(C)nc3ncnn23)cc1
  -14, 23, ., -0.3, i, 4, 8, -1.5, 1.3, -5

# Compound activity as filed in PubChem.

# Only part of the results is shown; count on the stated rates, not on these rows.
